RGS16-Gao HTS – modulators of RGS16 binding to Galphao, primary screen, biochemical, human proteins, multiplexed bead flow cytometry. 0.38% of 220,000 active. Regulator of G-protein signaling 16 (Homo sapiens) + Guanine nucleotide-binding protein …. bead-based flow cytometry RGS16-Galphao binding, fluorescence; actives lie on both sides. binding response (% of control), % at 10 µM;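 active = below 25% or above 175%, edge rows of some plates excepted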;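 also: Galphao activated by GDP with aluminum fluoride before binding; 100% = wells without compound and 0% = beads without RGS; some results beyond the cut were filed as inactive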
Target sequence (O15492 whole entry, looked up): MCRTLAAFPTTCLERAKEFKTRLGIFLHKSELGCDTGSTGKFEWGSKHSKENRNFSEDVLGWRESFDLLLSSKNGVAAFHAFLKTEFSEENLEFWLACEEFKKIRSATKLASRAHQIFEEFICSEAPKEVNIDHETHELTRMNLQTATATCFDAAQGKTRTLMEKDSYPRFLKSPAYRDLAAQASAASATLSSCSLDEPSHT
Target sequence (P09471 whole entry, looked up): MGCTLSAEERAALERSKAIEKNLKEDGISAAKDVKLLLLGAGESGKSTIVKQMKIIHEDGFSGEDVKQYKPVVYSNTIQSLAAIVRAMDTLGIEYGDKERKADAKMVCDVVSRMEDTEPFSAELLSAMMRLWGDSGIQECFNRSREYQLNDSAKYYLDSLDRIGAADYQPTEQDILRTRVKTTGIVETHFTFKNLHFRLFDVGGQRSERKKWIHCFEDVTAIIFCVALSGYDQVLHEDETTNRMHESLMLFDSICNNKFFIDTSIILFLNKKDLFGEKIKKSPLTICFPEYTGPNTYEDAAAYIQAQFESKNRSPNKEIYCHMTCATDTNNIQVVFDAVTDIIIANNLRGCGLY
PKD1 inh – inhibitors of human PKD1 kinase, biochemical, fluorescence polarization; Serine/threonine-protein kinase D1 (Homo sapiens), Q15139; PKD1 kinase fluorescence polarization assay; inhibition, %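 (about 10 µM by stock and volumes)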; 0.056% of 200,000 active; AID 797, 2007;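 active = inhibition of 50% or more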;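 also: controls were vehicle for no effect and a reference inhibitor for full effect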
GALR2 agonist – GALR2 receptor agonists, primary screen, cell-based. activation, %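 (tested at 5 µM)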. AID 803, 2007. GALR2-expressing cells, agonist activation read-out. 0.48% of 140,000 active. Galanin receptor type 2 (Homo sapiens), O43603;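 active = above mean plus 3 SD of all compounds, about 5% in these data, not always enough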;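 also: 0% = vehicle buffer wells and 100% = reference agonist at full effect; tested in CHO reporter cells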
Target sequence (O43603 whole entry, looked up): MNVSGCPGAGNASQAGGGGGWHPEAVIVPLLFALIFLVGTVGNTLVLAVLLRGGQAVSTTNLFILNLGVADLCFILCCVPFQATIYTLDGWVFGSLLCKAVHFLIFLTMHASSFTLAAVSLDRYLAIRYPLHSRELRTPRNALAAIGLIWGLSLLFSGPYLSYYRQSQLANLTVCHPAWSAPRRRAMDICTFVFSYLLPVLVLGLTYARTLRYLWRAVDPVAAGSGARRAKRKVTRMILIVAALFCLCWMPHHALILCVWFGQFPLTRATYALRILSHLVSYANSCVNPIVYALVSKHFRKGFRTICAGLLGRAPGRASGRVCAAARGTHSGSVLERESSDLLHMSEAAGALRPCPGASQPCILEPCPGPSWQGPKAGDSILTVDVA
HSV replic up – enhancers of HSV replication in host cells, fold increase, host cell viability | maximum fold increase | AID 1956, 2009 | 0.005% of 220,000 active | HSV replication augmentation in cells;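 active = peak rise of 1.5-fold or more in the series; inconclusive = self-fluorescent or not available for retest; tested in PC3 cells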;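 also: first round at 10 µM; read as green reporter fluorescence; hits show the peak of a series up to 25 µM; 1 = signal of infected wells without compound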
INS promoter inh – inhibitors of insulin promoter-driven GFP, primary screen, imaging, TRM-6 cells (human fetal islet line), eGFP reporter, cell count | reporter expression induced with tamoxifen | inhibition, % at 2 µM | 0.9% of 130,000 active | AID 1273, 2008;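 active = inhibition above the mean plus 3 SD, with well images judged a real hit on visual review, cut at about 60% in these data, passing the limit was not always enough; inconclusive = inhibition over the cutoff but images rejected on review; inactive = inhibition not above the cutoff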
INS promoter inh cell count – second read-out of INS promoter inh, no call of its own (marks repeat the call); normalized cell count, %; measured here: cell count, toxicity; reference of the scale not given here;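 cells exposed to compound for 48 h; stained nuclei by imaging scaled within each plate; lower means fewer cells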
HSV replic up primary fold – recorded beside HSV replic up, whose call it bears; fold increase; compound at 10 µM; measured here: primary screen fold increase 10 uM; tested in PC3 cells;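 GFP signal in the first replicate; 1 = infected wells without compound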
Numbers without * were called inactive; i = inactive; ? = inconclusive; nt = no result given.

cpd	molecule	RGS16-Gao HTS	PKD1 inh	GALR2 agonist	HSV replic up	HSV replic up primary fold	INS promoter inh	INS promoter inh cell count
1	CCc1ccc(NC(=O)c2c(Cl)nc(C)c(Cl)c2C)cc1	104	2	0.0	i	0.85	-31	166
2	Fc1ccccc1-n1cn[nH]c1=S	100	2	nt	i	1.1	nt	nt
3	N#Cc1c(SCc2cccc(Cl)c2)sc(C(=O)c2ccccc2)c1N	106	-1	-1.7	i	0.78	-457	81
4	CCOC(=O)c1sc(NC(=O)c2cccnc2)nc1C	100	-2	nt	i	0.87	nt	nt
5	CCOC(=O)/C(C#N)=C1/C=CNC(=O)N1	96	-10	-1.8	i	1.1	45	58
6	CC(C)CNS(=O)(=O)c1ccc(OCC(=O)NCc2ccco2)cc1	112	1	-0.4	i	0.94	nt	nt
7	CC(Oc1ccccc1)C(=O)NN1Cc2ccccc2C1=N (stereo not given)	104	-8	nt	i	1.1	-40	114
8	CCOc1ccc(C(F)(F)F)cc1NC(C)=O	101	6	-0.8	i	1.1	-31	83
9	CCN(CC)S(=O)(=O)c1ccc(C(=O)NCc2cccs2)cc1	96	9	-0.6	i	0.73	-20	86
10	COc1cc(C)ccc1OCCCOc1ccccc1Br	106	1	-1.7	nt	nt	nt	nt
11	CC1CC(=O)N(c2ccc(NCc3ccccc3Cl)c([N+](=O)[O-])c2)C1=O (stereo not given)	96	2	0.1	i	0.96	40	112
12	CC1Cc2ccccc2N1C(=O)CSc1nc2cc3c(cc2cc1C#N)OCO3 (stereo not given)	96	-9	-2.7	i	1.1	-42	87
13	O=C(c1cnn2c(C(F)F)cc(-c3ccccc3)nc12)N1CCc2ccccc21	104	-11	nt	i	0.9	-21	60
14	CCC(C)(NC(=O)c1ccc(=O)[nH]c1)C(=O)NC1CCCC1 (stereo not given)	108	7	-1.9	i	0.79	nt	nt
15	O=C(Nc1ccc(F)cc1)C1CCN(C(=O)c2ccc([N+](=O)[O-])cc2)CC1	97	-3	nt	i	1	nt	nt
16	COc1ccc(C(=O)NCc2nnc(SCCOc3ccccc3)n2C)cc1	103	-5	nt	i	0.87	nt	nt
17	Cc1cccc(C)c1NC1=C(Cl)C(=O)OC1OC(C)C (stereo not given)	109	-6	-0.8	i	0.97	6	191
18	COc1cccc(-c2c(C#N)c(N)nc3c2c(=O)nc2sccn23)c1	107	-3	nt	i	0.97	nt	nt
19	COc1cccc(C(=O)N2CCN(Cc3ccccn3)CC2)c1OC	102	-7	-3.2	i	0.91	nt	nt
20	CCOC(=O)N1CCN(C(=O)CN(Cc2ccccc2)S(=O)(=O)c2ccc(OC)c(Cl)c2)CC1	68	-6	-0.9	i	0.84	-7	100
21	Cc1ccc(C)n1-c1nn(S(=O)(=O)c2cccc(C(F)(F)F)c2)c2cccc(F)c12	99	nt	nt	i	0.98	nt	nt
22	CCOc1cc(CNCCc2ccc(S(N)(=O)=O)cc2)ccc1OCc1ccccc1	100	6	-0.7	i	0.67	nt	nt
23	Cc1[nH]c2ccccc2c1C(=O)C(=O)N1CCN(C)CC1	100	12	nt	i	0.95	nt	nt
24	COc1ccc(CCNC(=O)CSC2=Nc3ccccc3C3=NC(C(C)C)C(=O)N23)cc1OC (stereo not given)	100	-7	-1.0	nt	nt	5	217
25	CC(=O)Nc1ccc(S(=O)(=O)NCCC(=O)OCCN2C(=O)c3ccccc3C2=O)cc1	102	-7	-3.0	i	0.88	-33	121

Next structures follow:
cpd	molecule	RGS16-Gao HTS	PKD1 inh	GALR2 agonist	HSV replic up	HSV replic up primary fold	INS promoter inh	INS promoter inh cell count
26	O=C(Nc1cccnc1)c1ccc(Br)s1	101	-1	0.1	i	0.64	4	187
27	Cc1nc2ccc(NC(=O)C(F)(F)F)cc2o1	94	-5	-1.1	i	0.92	nt	nt
28	COc1ccccc1-c1cc(C(F)(F)F)nc(N2CCCCC2)n1	100	-5	-1.8	i	0.87	50	160
29	O=C1c2ccccc2C(=O)N1CCc1nc2ccccc2c(=O)n1CCCn1ccnc1	120	7	-1.3	i	0.94	23	65
30	O=C(OCCN=C1NS(=O)(=O)c2ccccc21)C1CC(=O)N(c2ccc(Cl)cc2)C1 (stereo not given)	11	-3	1.9	i	0.98	-15	164
31	Cc1oc(-c2ccccc2F)nc1CS(=O)(=O)CC(=O)NCCCN1CCc2ccccc2C1	107	-12	-0.4	i	0.97	nt	nt
32	CCOC(=O)c1sc(=S)n(C)c1NC(=O)c1ccc(C(C)(C)C)cc1	98	nt	nt	i	0.88	nt	nt
33	COc1ccc(/C(O)=C2/C(=O)C(=O)N(Cc3ccco3)C2c2cccs2)cc1 (stereo not given)	110	-6	-0.4	i	1.1	-10	130
34	CC(C)(C)c1cc(-c2nc(N)nc(N)n2)cc(C(C)(C)C)c1	103	1	-0.7	i	0.76	27	88
35	O=C(CNS(=O)(=O)c1ccc(Br)s1)N1CCC(N2CCCCC2)CC1	87	-9	-1.5	i	0.93	48	117
36	O=c1cc(NCc2ccccc2)c2ccccc2o1	100	-5	-0.8	i	0.97	-6	122
37	COc1ccc(/C=C2/N=C3CCCCCN3C2=O)cc1	114	-7	nt	i	1	15	115
38	O=C(NCCc1c[nH]c2ccccc12)OCCSS(=O)(=O)O	97	0	nt	i	1.1	36	132
39	N=c1ccccn1CC(O)COc1ccccc1 (stereo not given)	102	-16	-0.5	i	0.88	nt	nt
40	CCCCNc1nc(CC)c2c(c1C#N)CCCC2	96	-5	-3.0	i	1.1	11	109
41	CC1=C(C(=O)OC(C)C)[C@@H](c2ccc(C)o2)NC(=O)N1	87	-5	-2.8	i	1.2	7	95
42	O=C1CC(NC23CC4CC(CC(C4)C2)C3)C(=O)N1c1ccc2c(c1)OCO2 (stereo not given)	107	-1	-1.0	i	1.2	-14	109
43	NC(=S)Nc1cccc(Cl)c1	96	nt	nt	i	1.3	nt	nt
44	COc1ccc(/C=C/C(=O)c2ccc(O)cc2)cc1COc1ccc(F)cc1	103	-6	-1.0	i	1	16	83
45	O=C1c2cccc3cccc(c23)C(=O)N1Nc1ccccc1	100	-7	nt	i	0.9	nt	nt
46	CCOCCN1CCN(c2c(C)c(C)nc3cc(-c4cc(OC)cc(OC)c4)nn23)CC1	101	-11	1.7	i	0.76	-30	148
47	COc1cc(NC(=O)CCCl)cc(-n2cnnn2)c1	110	0	nt	i	1.2	nt	nt
48	Cc1c(O)ccc(/C(Cc2ccc3ccccc3n2)=N\O)c1O	120	-7	-0.6	i	0.88	2	106
49	CCCCOC(=O)CSC(=S)N(C)Cc1cccs1	103	-6	-1.6	i	1	37	127
50	COc1ccccc1NC(=O)COC(=O)/C=C/c1ccccc1[N+](=O)[O-]	115	-1	-1.4	i	1	nt	nt

Remaining list, next part:
cpd	molecule	RGS16-Gao HTS	PKD1 inh	GALR2 agonist	HSV replic up	HSV replic up primary fold	INS promoter inh	INS promoter inh cell count
51	Cc1ccc(S(=O)(=O)N2CCN(C(=O)c3cccs3)CC2)c(C)c1	105	1	nt	i	0.91	27	182
52	CN(CCCNC(=O)C1CCC(=O)N1Cc1ccccc1Cl)c1ccccc1 (stereo not given)	100	-6	-0.5	i	0.91	-26	98
53	CC(C)Oc1ccc(/C=N/NC(=O)C(CSCc2ccccc2)NC(=O)c2ccc([N+](=O)[O-])cc2)cc1 (stereo not given)	105	2	0.3	i	0.78	44	109
54	CCn1nnc(NC(=O)c2ccc(-c3ccc(Cl)cc3)o2)n1	105	-9	-0.2	i	0.83	-20	143
55	O=C(CSc1nc(Cc2ccccc2)nc2ccccc12)Nc1ccc2c(c1)OCCO2	103	-7	-0.5	i	0.9	-5	72
56	O=C(CC1Nc2ccccc2NC1=O)Nc1ccc2c(c1)OCO2 (stereo not given)	91	11	nt	i	1	-47	74
57	Cc1cc(NC(=O)CN2C(=O)NC(C)(c3ccc(Cl)cc3)C2=O)no1 (stereo not given)	93	2	nt	i	0.89	29	116
58	CCOC(=O)C1C(c2cccs2)NC(=O)N(C)C1(O)C(F)(F)F (stereo not given)	94	2	-0.3	i	0.98	36	144
59	COc1ccc(OC)c(C2N(c3ccc(Cl)cc3)C(=O)C3CCCN32)c1 (stereo not given)	112	2	-0.8	i	0.96	nt	nt
60	C=CCNS(=O)(=O)c1ccc2nsnc2c1	120	-15	0.7	i	0.88	nt	nt
61	S=c1[nH]nc(CN2CCCCC2)n1Cc1ccccc1	96	-1	nt	i	1	nt	nt
62	Cc1nn(-c2cccc(Cl)c2)c2nc(C(F)(F)F)[nH]c(=O)c12	103	-5	-0.7	i	1	nt	nt
63	CCOCc1cnc(C)nc1NCC(=O)c1c(C)[nH]c2cc(C)ccc12	114	-3	0.8	i	0.77	7	146
64	COCCOC(=O)C1=C(C)NC(SCC(=O)NC(C)(C)C)=C(C#N)C1c1ccco1 (stereo not given)	114	0	0.2	i	1	-56	84
65	C=CCN(C(=O)c1csnn1)C(C(=O)NC(C)(C)C)c1ccncc1 (stereo not given)	106	-7	nt	i	1	nt	nt
66	Cc1ccc(-n2ncc3c(=O)n(CC(=O)N4CCCc5ccccc54)cnc32)cc1C	111	-2	-0.1	i	0.92	-10	63
67	CCC1SC2=NC(C)=C(C(=O)OCCOC)C(/C=C/c3ccccc3OC)N2C1=O (stereo not given)	101	-13	-0.2	i	0.95	29	65
68	O=C(CN(CCc1ccccc1)C(=O)Cn1nnc(-c2cccs2)n1)NCc1ccco1	104	18	0.0	i	1	nt	nt
69	CCOC(=O)C1(Cc2ccccc2C(F)(F)F)CCN(CC(O)CO)CC1 (stereo not given)	99	-2	nt	i	0.92	nt	nt
70	Cc1ccc(-c2nnn(CC(=O)NC3CCN(Cc4ccccc4)CC3)n2)cc1	94	-3	-2.6	i	0.75	57	131
71	CCC1CCCCN1Cc1nc2ccccc2c(=O)n1CC(C)=O (stereo not given)	106	nt	nt	i	1.1	nt	nt
72	CCOP(=O)(OCC)/C(=C/N1CCCCC1)NC(=O)c1ccccc1	100	1	nt	i	0.99	-14	137
73	CCCC/C(C)=N/NC(=O)c1cn(-c2ccccc2)nc1-c1ccccc1	94	-11	-1.1	i	0.8	nt	nt
74	COc1ccc(CC(=O)Nc2ccc(C(=O)NC(C)(C)C)cc2)cc1OC	94	4	nt	i	0.99	nt	nt
75	CC1(C)Cc2c(sc3nc4n(c(=N)c23)CCC4)CO1	60	-3	-0.1	i	0.99	11	118

The listing continues.
cpd	molecule	RGS16-Gao HTS	PKD1 inh	GALR2 agonist	HSV replic up	HSV replic up primary fold	INS promoter inh	INS promoter inh cell count
76	O=C(Nc1nc2ccccc2s1)C1CCN(S(=O)(=O)c2cc([N+](=O)[O-])ccc2Cl)CC1	93	nt	nt	i	0.76	nt	nt
77	COC(=O)/C(=C(/F)SCC(C)=O)C(F)(F)F	99	-5	-0.7	i	0.96	-33	149
78	CCNc1ccc(N=Nc2c(C)n(C)n(-c3ccccc3)c2=O)cc1	109	-3	nt	i	0.96	nt	nt
79	COC(=O)c1cc(C(=O)c2cc(Br)ccc2O)coc1=N	93	-5	nt	i	1.1	-30	96
80	c1ccc(COC2CCCN(Cc3nc(Cc4ccccc4)no3)C2)cc1 (stereo not given)	91	-5	nt	i	0.8	nt	nt
81	CCCCCC(=O)N=Nc1c(O)[nH]c2ccc([N+](=O)[O-])cc12	104	2	-0.3	i	0.76	nt	nt
82	CCOc1cc(NC(=O)C2CCCCC2)c(OCC)cc1NC(=O)c1ccco1	97	-1	32*	i	0.86	55	117
83	Cc1cc(NC(=O)/C=C/C(=O)N(c2ccccc2C)C(C(=O)NC2CCCC2)c2ccc(F)cc2)no1 (stereo not given)	100	-12	0.5	nt	nt	-3	71
84	O=C(NC(=S)Nc1ccccc1N1CCCCC1)c1ccco1	104	-2	-0.2	?	nt	nt	nt

5 entries from above, with values under each structure.
Below each compound: RGS16-Gao HTS | PKD1 inh | GALR2 agonist | HSV replic up | HSV replic up primary fold | INS promoter inh | INS promoter inh cell count
77. COC(=O)/C(=C(/F)SCC(C)=O)C(F)(F)F
→ 99 | -5 | -0.7 | i | 0.96 | -33 | 149
78. CCNc1ccc(N=Nc2c(C)n(C)n(-c3ccccc3)c2=O)cc1
→ 109 | -3 | nt | i | 0.96 | nt | nt
79. COC(=O)c1cc(C(=O)c2cc(Br)ccc2O)coc1=N
→ 93 | -5 | nt | i | 1.1 | -30 | 96
80. c1ccc(COC2CCCN(Cc3nc(Cc4ccccc4)no3)C2)cc1 (stereo not given)
→ 91 | -5 | nt | i | 0.8 | nt | nt
81. CCCCCC(=O)N=Nc1c(O)[nH]c2ccc([N+](=O)[O-])cc12
→ 104 | 2 | -0.3 | i | 0.76 | nt | nt

Screening data deposited in PubChem by several laboratories.

Rows are unselected. Share with any hit: about 1.2%.
